Yeast UUG start: alters start codon recognition fidelity in yeast; S. cerevisiae UUG-firefly luciferase reporter, luminescence/redox ratio; activity score, % at 18.7 µM; 350,000 compounds, 0.13% hits; AID 602363;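 active means replicate mean at a twofold rise or more, about +100% in these data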;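 further: firefly luciferase made from a UUG start codon reports start codon fidelity; reporter light over untreated wells divided by growth signal over untreated wells; some hits fall short of that in this replicate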
MT1-MMP act inh: blocks activation of human MT1-MMP; P50281; HT1080 RFP-PRO-GFP cells, GFP/RFP ratio fluorescence, overnight; percent of plate control window, DMSO zero; GFP/RFP ratio change, % at 20 µM; 360,000 compounds, 0.061% hits; AID 651647;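 active means GFP/RFP ratio change of at least 30% with cell ATP level not reduced by more than half and red fluorescence within 50% of control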; further: strong numbers were not always called active
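Test system: HT1080 RFP-PRO-GFP cells; Benchmarks: DMSO and RFP-L50D-GFP cell wells; Timing: cells overnight before dosing, compound overnight, 37 °C, 5% CO2; Compound: one 20 µM compound dose with 1% DMSO; Read-out: GFP/RFP fluorescence ratio.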
HIV Env fusion: inhibitors of HIV Env-mediated cell fusion; inhibition, % at 12.3 µM; AID 651610; HeLa-JRFL Env/CEM21 cell fusion, luciferase; 360,000 compounds, 1.1% hits;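 active means mean replicate inhibition score of at least 50 and every replicate individually at or above 50; inconclusive means only one of the two criteria met; inactive means mean below 50 and not all replicates reaching 50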;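 further: 0% = plate neutral controls and 100% = maraviroc near 300 nM; one replicate is shown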
PABP FP inh: PABP-poly(A) binding inhibition; P11940; PABP-poly(A) RNA binding, fluorescence polarization; inhibition, % at 35 µM; 290,000 compounds, 1% hits;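 active means 50% or more with normal probe brightness, or confirmed in later tests; inconclusive means above 50% with abnormal brightness, or retests that disagree; inactive means below 50% or failed in later tests; about a fifth of its hits are not listed in these tables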;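 further: calls also rest on retests at 20 µM and on dose response follow-up; controls were probe without protein and protein plus probe with vehicle; some compounds called inactive have numbers as strong as hits; many hits fall short of the cut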
Rce1 inhib: blocks yeast Ras-converting enzyme; Q03530; yeast membranes, quenched prenylated peptide cleavage fluorescence; calls only; 290,000 compounds, 0.27% hits;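 active means fall in fluorescence gain of 50% or more versus controls, with final raw signal at or below 3038400; inconclusive means same 50% fall but final raw signal above 3038400; inactive means fall in fluorescence gain under 50%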;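 further: plate controls were neutral control wells for no effect and wells lacking membranes for full effect; tested at 10 µM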
Target sequence (Q03530 whole entry, looked up): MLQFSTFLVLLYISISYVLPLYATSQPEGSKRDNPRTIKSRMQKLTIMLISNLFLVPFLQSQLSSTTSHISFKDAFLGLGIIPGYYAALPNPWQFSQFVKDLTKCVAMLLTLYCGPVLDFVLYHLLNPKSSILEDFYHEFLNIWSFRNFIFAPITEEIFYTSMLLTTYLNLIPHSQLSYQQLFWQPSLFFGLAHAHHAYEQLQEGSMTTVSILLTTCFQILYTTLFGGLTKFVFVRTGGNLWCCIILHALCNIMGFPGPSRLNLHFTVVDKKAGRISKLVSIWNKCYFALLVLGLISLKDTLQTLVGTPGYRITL
eIF4H FP inh: inhibitors of RNA binding by human eIF4H; Q15056; eIF4H fluorescence polarization binding assay; inhibition, % at 35 µM; 290,000 compounds, 0.94% hits; AID 2012;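 active means 50% or more with normal probe brightness, or confirmed in later tests; inconclusive means above 50% with abnormal brightness, or retests that disagree; inactive means below 50% or failed in later tests; about a fifth of its hits are not listed in these tables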;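 further: calls also rest on retests at 20 µM and on dose response follow-up; 0% = protein and probe with vehicle and 100% = probe without protein; strong numbers were not always called active; many hits fall short of the cut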
CSC inhib: cancer stem cell inhibition. cancer stem cell-like cells viability, luminescence. 300,000 compounds, 1.1% hits. inhibition, % at 7.5 µM;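 active means mean at 75% or more and at least half the replicates too; inconclusive means mean and replicates disagree; tested in HMLE shEcad cells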;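 further: 0% = median of negative and 100% = median of positive control wells; the first replicate is given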
eIF4H FP inh retest: also measured in eIF4H FP inh; calls as there; inhibition, %; compound at 20 µM; confirmation average;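 mean of two retest wells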
PABP FP inh retest: second read-out of PABP FP inh, no call of its own (marks repeat the call); inhibition, %; compound at 20 µM; confirmation repeats;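 mean of two retest wells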
MT1-MMP act inh RFP: recorded beside MT1-MMP act inh, whose call it bears; RFP signal change, %; measured here: RFP expression control read;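 0 = vehicle wells; hits needed this value within 50% of zero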
* hit, by the source's call; i = inactive; ? = inconclusive; . = no result given.

SMILES	Yeast UUG start	MT1-MMP act inh	MT1-MMP act inh RFP	HIV Env fusion	PABP FP inh	Rce1 inhib	eIF4H FP inh	CSC inhib	others
CCOC(=O)CSc1n[nH]c(-c2ccco2)n1	-15	4	5	-10	3	i	-4	10
Cc1ccc(/C=N/NC(=O)CSc2nnc(-c3ccccc3)n2-c2ccc(Cl)cc2)o1	.	1	0	14	-22	i	-12	1
CCCN1C2CCCC1CC(NC(=O)c1ccc(OC)cc1)C2 (centres undefined)	-4	2	1	-8	-6	i	4	2
N[C@@H](CCC(=O)N[C@@H](CSN=O)C(=O)NCC(=O)O)C(=O)O	-11	5	10	.	.	.	.	-2
O=C(COC(=O)c1cc(=O)[nH]c(=O)[nH]1)Nc1ccccc1F	-11	4	3	5	.	.	.	-15
CCOC(=O)c1nn(-c2cccc(OC)c2)c2nc(Nc3ccccc3)cc(=O)n12	0	-13	-1	-54	-7	i	29	.
Cc1cc(C)n(Cc2ccccc2Cl)n1	-4	2	-1	.	1	i	10	8
O=c1c(-c2ccc([N+](=O)[O-])cc2)coc2c(O)c(O)ccc12	.	0	-7	-19	10	i	20	46
Cc1ccc(C(=O)/C=C/NNC(=O)c2ccccc2O)cc1	-14	-8	-3	-3	5	.	3	11
Cc1ccc(CNS(=O)(=O)c2c(C)nc3scc(C)n3c2=O)cc1	.	-6	0	3	5	i	0	3
O=C(c1ccc2noc(-c3ccccc3)c2c1)N1CCN(c2ccccc2)CC1	-4	-4	1	14	.	.	.	.
CCC(=O)Nc1cc(C(=O)OCC(=O)c2ccccc2)ccc1C	.	12	7	15	-4	i	-1	-4
Cc1ccc(/C=C2/N=C(c3ccccc3)NNC2=O)cc1	-10	3	0	6	6	i	2	.
CC(C)n1c(SCC(=O)Nc2ccccc2N2CCCCC2)nc2c1c(=O)n(C)c(=O)n2C	.	1	-7	.	-10	i	0	-6
O=C(c1ccc(OCC2CCCO2)cc1)N1CCc2ccccc2C1 (centres undefined)	13	2	3	-7	-11	i	-6	-15
O=C(CN1CCOc2ccccc21)NCc1ccco1	-9	-3	1	-15	-8	i	-3	.
O=C(NNc1ccccn1)C(=O)NNS(=O)(=O)c1ccc(Cl)cc1	-29	4	1	-7	-6	i	-4	9
COc1ccc(CCNC(=O)c2ccc(Br)cc2)cc1	-17	5	2	-3	-5	i	-7	-14
CCOc1nc(C)ccc1-c1noc(-c2ccncc2)n1	-12	3	-1	-145	-9	i	10	-7
COc1cccc(C(C(=O)NC2CCCC2)N(C(=O)c2ccco2)c2ccccc2)c1OC (centres undefined)	13	-4	0	-4	-2	.	3	-7
CCOc1ccc2nc(SC3CC(=O)N(c4ccccc4)C3=O)sc2c1 (centres undefined)	-8	4	5	.	0	i	-1	-8
COc1cc2cc(CN(C(=O)Nc3ccccc3)C3CCCC3)c(=O)[nH]c2cc1OC	2	0	5	.	8	i	5	2
CCOc1ccc(NC(=O)N2CC=C(n3c(=O)[nH]c4ccccc43)CC2)cc1	-2	7	0	.	-5	i	-3	-14
CCCC(CCC)=NNc1ccc(S(=O)(=O)Nc2ccccc2OC)cc1[N+](=O)[O-]	.	-1	-10	9	3	i	0	18
O=C(Nc1cccnc1)c1cccc(S(=O)(=O)N2CCOCC2)c1	.	-3	2	.	4	i	-4	.

The final 3 entries of the part above lead into the next.
SMILES	Yeast UUG start	MT1-MMP act inh	MT1-MMP act inh RFP	HIV Env fusion	PABP FP inh	Rce1 inhib	eIF4H FP inh	CSC inhib	others
CCOc1ccc(NC(=O)N2CC=C(n3c(=O)[nH]c4ccccc43)CC2)cc1	-2	7	0	.	-5	i	-3	-14
CCCC(CCC)=NNc1ccc(S(=O)(=O)Nc2ccccc2OC)cc1[N+](=O)[O-]	.	-1	-10	9	3	i	0	18
O=C(Nc1cccnc1)c1cccc(S(=O)(=O)N2CCOCC2)c1	.	-3	2	.	4	i	-4	.
CC(C)C(=O)NNC(=O)c1csc(-c2cccs2)n1	.	0	2	-24	3	i	4	-10
CC(=O)C1=C(C)NC(SCC(=O)c2ccc(F)cc2)=C(C#N)C1c1ccco1 (centres undefined)	3	-60	-5	7	37	i	27	-6
C=C(C)C1Cc2c(C)nn(-c3ccccn3)c2C1 (centres undefined)	-36	0	2	.	2	i	4	-4
Cc1nc(Cc2nnc(SC(C)C(=O)Nc3ccccc3)o2)cs1 (centres undefined)	-14	0	3	31	.	.	.	.
Cc1cc(NC(=O)CSc2ccc3c(c2)OCCO3)no1	-17	3	1	.	-8	i	-1	3
COc1cc(/C=N/n2cnn(Cc3ccccc3Cl)c2=S)cc(OC)c1OC	.	6	-4	2	?	i	4	-6
CCOC(=O)CCc1c(C)n[nH]c1C	.	0	7	8	-4	i	-7	.
COc1ccc(CC(=O)N[C@@H]2c3ccccc3CC[C@H]2OCc2ccccc2)cc1	10	-5	-7	8	.	.	.	.
O=C(/C=C/c1cccs1)N1CCC2(CC1)Oc1ccc(F)cc1C(=O)C21CC(c2ccccc2)=NO1 (centres undefined)	-18	-6	-4	0	4	i	0	.
CC(=O)Nc1ccc(NC(=O)Cn2cnc3c(nnn3Cc3ccc(F)cc3)c2=O)cc1	-9	0	0	4	-12	i	-4	5
OC(CNCc1cccc(Cl)c1)c1ccccc1 (centres undefined)	.	7	5	2	-5	i	-5	-3
CCOC(=O)/C=C1\SCC(=O)N1CC(=O)NC(C)C	-17	1	4	.	11	i	0	-3
COCC(C)NC(=O)CSc1nc(-c2ccccc2)c(-c2ccccc2)o1 (centres undefined)	-17	-7	-11	28	3	i	-7	-5
CCCCC(CC)CNC(=O)CCCCn1c(=O)[nH]c2ccsc2c1=O (centres undefined)	-2	8	4	3	-5	i	-11	-12
COc1ccc(/C=N/NC(=O)c2cc3c(ccc4ccccc43)o2)c(OC)c1	2	1	5	-49	-7	i	1	.
Nc1nncn1C(=O)CCCOc1ccccc1	-24	5	7	0	6	i	-2	-9
FC(F)(F)c1cnc(-c2cnc(-c3ccncc3)nc2)c(Cl)c1	.	0	-2	-25	-7	i	-2	.
Cc1ccc(NC(=O)CNc2ccc(N3CCOCC3)cc2)cc1S(=O)(=O)N(C)C	.	4	-1	0	5	.	4	-8
Cc1cccc(NC(=S)N2CCN(Cc3ccccc3)CC2)c1C	.	2	4	-25	0	i	-2	-5
O=C(COC(=O)CC1CCCC1)Nc1cc2c(cc1Cl)C(=O)c1ccccc1C2=O	15	-15	-6	-196	16	i	13	23
Cc1nn(Cc2ccccc2)c(C)c1CNC(=O)CN=C1NS(=O)(=O)c2ccccc21	-18	2	3	-8	.	.	.	.
CC(=O)NCC(=O)OCC(=O)c1ccc(Br)cc1	-8	5	10	-39	6	i	0	-12
COC(=O)/C(=C/c1ccco1)NC(=O)c1ccc(Br)o1	.	-2	3	-29	-4	i	26	-9
O=C(COc1ccccc1[N+](=O)[O-])NC1CC1	-16	-4	1	-16	2	i	5	-7
O=C(O)c1c2c(nc3ccccc13)/C(=C/c1ccc(O)cc1)CC2	.	-2	1	27	-4	i	105	-9	eIF4H FP inh retest=16;PABP FP inh retest=9
Continuation:
SMILES	Yeast UUG start	MT1-MMP act inh	MT1-MMP act inh RFP	HIV Env fusion	PABP FP inh	Rce1 inhib	eIF4H FP inh	CSC inhib	others
NC(=O)Cc1ccc(C(=O)c2ccccc2F)s1	4	1	6	-11	-12	i	3	.
Cc1ccc(CNC(=O)/C=C/c2ccccc2Cl)cc1	-14	3	-6	.	0	i	3	0
Cc1occc1-c1nnc(SCCNCCO)o1	.	-4	-5	-1	-1	i	10	-10
COc1cc(OC)cc(C(=O)Nc2cccc(-c3ccc4nncn4n3)c2)c1	.	.	.	.	-8	i	-15	-12
COC(=O)c1cn(NC(=O)Cc2ccccc2OC)c(=O)c2ccccc12	0	-1	0	-1	4	i	2	.
CC1=NN(c2nc(-c3ccccc3)cs2)C(=O)C1	-18	2	-5	-47	12	i	16	.
O=[N+]([O-])c1ccc(N=Nc2c(O)[nH]c3ccc(F)cc23)cc1	1	-5	-1	-94	9	i	4	45
CCCCc1nc2sc3c(c2c(=O)n1NC(=O)c1ccco1)CC(C)(C)OC3	.	1	0	-8	2	i	1	-4
CCc1nn(CC(=O)N2CCCCCC2)c(=O)c2cc3ccccc3n12	0	3	2	7	2	i	-3	-10
CCCc1nnc(NC(=O)CCC(=O)N2CCN(S(=O)(=O)c3ccc(OC)cc3)CC2)s1	-17	-2	0	-13	29	i	-8	3
Cc1ccc(Cl)cc1N1CCN(S(=O)(=O)c2ccc3c(c2)NC(=O)C(C)C(=O)N3)CC1 (centres undefined)	-11	2	-12	10	-15	i	-10	-6
CC(Oc1ccc(S(=O)(=O)N2CCCC2)cc1[N+](=O)[O-])C(=O)NC1(C#N)CCCCC1 (centres undefined)	-24	-3	-3	.	.	.	.	30
CCn1c(COc2ccccc2C)nnc1SCC(=O)CC(=O)Nc1ccccc1	-1	8	-1	5	-8	i	2	4
Cc1csc2c(N3CCN(C(=O)Nc4ccc(OC(F)(F)F)cc4)CC3)ncnc12	.	5	-3	24	7	i	-7	36
C#CCN(CC=C)C(=O)CCc1nnc(COc2ccccc2)o1	-8	3	5	-12	0	i	0	1
CC1(C)Cc2ccccc2C(C(=O)c2ccccc2)=N1	-7	0	0	4	11	i	-7	-2
OCCN1CCN(c2ncnc3ccc(Br)cc23)CC1	-2	-13	-5	14	-8	i	2	.
COCCNC(=O)CN1C(=O)COc2ccc(Cl)cc21	-19	0	3	-3	3	i	9	3
CCCCc1cc(=O)oc2cc(OCC(=O)N[C@@H](Cc3ccccc3)C(=O)O)ccc12	-14	1	6	.	-9	i	-4	8
Cc1ccnc(NC(=O)CSc2ccccn2)c1	.	5	2	-3	11	i	8	.
O=C(CSc1nnc(-c2ccncc2)n1-c1ccc(F)cc1)NNC(=O)c1cccc(O)c1	-18	0	4	-7	-5	i	-6	-8
FC(F)(F)c1cccc(Nc2nc(N3CCOCC3)nc(N3CCOCC3)n2)c1	-19	-7	-9	14	-4	i	-17	-8
O=C(c1cc2c(F)cccc2s1)N1CCCC1	.	3	0	-19	-1	i	-4	-7
O=C(Cc1cccs1)NCc1cccs1	2	0	3	.	2	i	-5	-12
Cc1cnn(-c2ccc3nnc(-c4ccc(Cl)cc4)n3n2)c1	-16	-3	-1	.	-6	i	-10	.
The results go on:
SMILES	Yeast UUG start	MT1-MMP act inh	MT1-MMP act inh RFP	HIV Env fusion	PABP FP inh	Rce1 inhib	eIF4H FP inh	CSC inhib	others
COc1ccc(C2(O)CCN(CCCCOc3ccccc3)CC2)cc1	-8	10	6	4	-4	i	-10	11
O=C(NCCCN1CCOCC1)c1ccc(NS(=O)(=O)c2ccccc2)cc1	-23	-3	0	-9	-8	i	-11	-19
COc1ccc(NC(=O)CSCC(=O)OCc2cccc(OC)c2OC)cc1	.	1	2	.	.	i	.	-7
COc1cccc(F)c1C(=O)NC(=O)Nc1ccc2nc(C)oc2c1	-16	-10	4	.	70*	i	82	1	eIF4H FP inh retest=47;PABP FP inh retest=63*
COc1ccc(C2CC(O)(C(C)(C)O)NO2)cc1 (centres undefined)	0	-3	2	-2	-4	i	-8	.
O=c1cc2c(=O)oc3cc(O)c(O)oc3c2c(O)c1O	-14	-2	4	-16	96*	i	92*	.
Cc1c(C(=O)Nc2ccccn2)sc2nc3n(c(=O)c12)CCC3	-25	2	6	-12	-16	i	-4	-12
COc1ccc(CNC(=O)C2CCN(c3nc(-c4ccccc4)nc4c3CCC4)CC2)cc1	-9	5	-6	22	-15	i	-7	21

From PubChem

The list is partial, so the mix of outcomes need not match the whole.
